# Compound activity as filed in PubChem BioAssay.
# TRPV1 PAM – enhances activation of the human vanilloid receptor TRPV1 | Q8NER1 | TRPV1-expressing cells, Fluo-8 calcium influx, capsaicin EC20 potentiation; host cell line not named in the record; control for the full effect not named in the record | actives 0.02% (n = 320,000) | potentiation, % at 8.33 µM; active means potentiation above 80%; inconclusive means 30% to 80%; inactive means below 30%; also: 0% is about no effect
# Target sequence (Q8NER1 whole entry, looked up): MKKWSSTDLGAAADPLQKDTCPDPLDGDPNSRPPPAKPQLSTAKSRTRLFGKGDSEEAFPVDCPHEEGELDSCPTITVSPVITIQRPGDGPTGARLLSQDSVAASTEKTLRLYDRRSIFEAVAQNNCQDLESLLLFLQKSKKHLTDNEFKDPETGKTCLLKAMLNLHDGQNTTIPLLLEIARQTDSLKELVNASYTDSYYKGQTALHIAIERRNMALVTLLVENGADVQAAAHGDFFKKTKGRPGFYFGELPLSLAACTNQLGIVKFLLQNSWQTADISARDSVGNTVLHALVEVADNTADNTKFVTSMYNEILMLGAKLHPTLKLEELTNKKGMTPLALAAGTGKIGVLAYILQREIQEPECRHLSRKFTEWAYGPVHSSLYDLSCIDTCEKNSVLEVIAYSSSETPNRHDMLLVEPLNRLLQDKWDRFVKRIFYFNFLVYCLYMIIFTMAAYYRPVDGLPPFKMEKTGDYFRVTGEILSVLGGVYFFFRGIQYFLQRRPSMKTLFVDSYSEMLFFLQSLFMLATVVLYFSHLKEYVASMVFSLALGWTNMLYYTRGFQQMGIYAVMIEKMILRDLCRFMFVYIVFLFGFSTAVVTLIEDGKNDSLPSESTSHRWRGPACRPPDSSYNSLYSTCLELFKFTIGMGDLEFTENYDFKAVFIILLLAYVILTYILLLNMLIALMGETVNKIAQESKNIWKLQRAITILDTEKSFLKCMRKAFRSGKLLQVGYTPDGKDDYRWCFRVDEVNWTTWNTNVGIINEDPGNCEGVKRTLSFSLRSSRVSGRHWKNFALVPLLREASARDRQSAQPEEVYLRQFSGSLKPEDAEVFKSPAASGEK
#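 Cells expressing TRPV1 were dye-loaded with Fluo-8 and read kinetically: 10 s baseline, 3 min after compound (agonist portion), then 2 min after EC20 capsaicin (allosteric enhancer portion). Calcium-bound dye fluorescence at 480/520 nm.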
# gsp ag – agonists of gsp mutant (McCune-Albright syndrome) | gsp mutant cells, cAMP HTRF, 30 min; control for the full effect not named in the record | Potency, µM (highest dose often 76.9 µM), for inactives: at the highest dose activation (cAMP increase), hits mostly activators | actives 0.13% (n = 340,000) | AID 624287; active = well fitted activation curve with a large enough effect; inconclusive = small, poorly fitted or top-dose-only effect, or another doubt; inactive = no such curve, though single readings can be large or run the other way; cell line not stated here;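 also: phosphodiesterase inhibitor Ro 20-1724 added with compounds to block cAMP breakdown; potency is read from the fitted curve at half-maximal effect; nearly all actives have a fitted effect of over 60% in size; about a fifth of the inactives were tested at one dose only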
#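 Cells in DMEM/10% FBS with G418 were pretreated with compounds in DMSO plus […] (300 uM stock) for 30 min at 37C. cAMP was measured by HTRF (cAMP-d2 plus anti-cAMP antibody-K) after 30 min at room temperature.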
# TRPML1 blocker – inhibitors of human TRPML1 channel. activity change, negative = inhibition, % (test concentration not listed). TRPML1-inducible cells, Ca2+ dye fluorescence, FDSS; hits give low values; inhibition of EC80 agonist-evoked calcium signal. actives 0.02% (n = 390,000); in the data active means activity change below about -50%; inconclusive means about -30% to -50%; inactive means above about -30%;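 also: stimulus is agonist 54-4 at its EC80 concentration; % is scaled to controls: 0 for no effect and ±100 for the full control effect; compound concentration not given in the record; the text of the record puts the active cut at -80%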
#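 TRPML1-DL cells, Tet-induced overnight (~16 h, 37 °C) at 1,500 cells/well, were loaded with Ca8 no-wash dye plus quencher for 45-90 min at room temperature. Compounds were pinned during FDSS kinetic reading; agonist 54-4 at EC80 (4 uM final) then added.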
# Sfp PPTase inh – blocks B. subtilis Sfp PPTase activity; Biochemical Sfp PPTase activity, qHTS; Potency, µM, for the others: max response, negative = inhibition, hits mostly inhibitors; actives 3.5% (n = 310,000); active = well fitted inhibition curve with a large enough effect; inconclusive = small, poorly fitted or top-dose-only effect, or another doubt; inactive = no such curve, though single readings can be large or run the other way;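 also: the enzyme is Sfp with the accession as filed and its product quenches rhodamine fluorescence; potency is read from the fitted curve at half-maximal effect; 0% = enzyme reaction without inhibitor and -100% = no enzyme wells; top concentration of the series not given in the record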
#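 With Hepes-Na pH 7.6 buffer containing 10 mM MgCl2, Sfp (15 nM) modified BHQ-2-YbbR (12.5 uM) using rhodamine-CoA (5 uM). Two reads 30 minutes apart at 525/598 nm yielded each well's rate.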
# gsp antagonist – antagonizes gsp, the McCune-Albright syndrome mutation | actives 0.4% (n = 340,000) | Potency, µM (top dose mostly 76.9 µM), for the others: at the highest dose activity change, negative = inhibition, most hits filed as inhibitors | gsp-mutant cells, cAMP HTRF, 30 min; control for the full effect not named in the record | AID 624288; active = falling curve of any shape with a large fitted effect; inconclusive = falling curve, mostly with a smaller effect; inactive = flat or rising curve; cell line not stated here;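 also: intracellular cAMP measured with PDE inhibitor Ro 20-1724 present during compound exposure; potency is read from the fitted curve at half-maximal effect; % is scaled to controls: 0 for no effect and ±100 for the full control effect; nearly all actives have a fitted effect of over 65% in size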
#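 G418-selected cells were plated in DMEM/10% FBS for 16-24 h at 37C, then treated with compounds plus the PDE inhibitor […] (300 uM solution added) for 30 min at 37C. Intracellular cAMP was measured by HTRF after 30 min lysis at room temperature.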
# ClpP mod – qHTS Assay for Activators of ClpP. ATP-dependent Clp protease proteolytic subunit (Bacillus subtilis (strain 168)), P80244. purified B. subtilis ClpP, FRET peptide cleavage, 20 min. Potency, µM (highest dose often 57.5 µM), for inactives: top-dose activity change, negative = active. actives 1.9% (n = 340,000). AID 651965, 2013; active = well fitted falling curve with a large enough effect; inconclusive = small, poorly fitted or top-dose-only effect; inactive = no such curve, though single readings can be large or run the other way; also: potency is read from the fitted curve at half-maximal effect; the source files actives as falling curves though it sought activators and does not explain the sign; nearly all actives have a fitted effect of over 65% in size; many hits overshoot -100%
# Target sequence (P80244 whole entry, looked up): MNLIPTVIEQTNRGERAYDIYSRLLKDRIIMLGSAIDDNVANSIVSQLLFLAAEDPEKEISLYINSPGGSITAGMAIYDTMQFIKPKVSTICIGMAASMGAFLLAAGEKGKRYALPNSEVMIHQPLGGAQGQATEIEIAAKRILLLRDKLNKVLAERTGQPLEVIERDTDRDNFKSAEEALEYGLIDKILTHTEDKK
#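 ClpP 10 microg/mL final, pH 8 Tris/KCl buffer with BSA, glycerol, Tween-20; compound pinned in; FRET-FV substrate; RT 20 min; Ex320/Em430; ΔFRET vs ADEP 5.8 microM, DMSO, no enzyme.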
# Menin-MLL FL inh – displaces fluorescein MLL peptide from human menin. 290,000 tested, under 10 active. FP activity change, % at 61.4 µM. Fluorescence polarization, fluorescein-MLL peptide displacement from menin; inconclusive = falling polarisation curve, or a change in total fluorescence; inactive = total fluorescence flat and polarisation flat or rising; no compound was filed as active; the % refers to the polarisation; negative = inhibition;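 also: % of control where 0% means no effect; inhibitors lower the polarisation; unlabelled MLL peptide was the positive control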
# Numbers without * were called inactive; u = inconclusive; x = not tested or not shown; [ ] = remark or other dose.
SMILES,TRPV1 PAM,gsp ag,TRPML1 blocker,Sfp PPTase inh,gsp antagonist,ClpP mod,Menin-MLL FL inh
CCCCCC(=O)NC(=S)Nc1ccc(N2CCCCC2)c(Cl)c1,-4,u,-24,9%,2%,-4.3%,2.0
COc1ccccc1/C=N/NC(=O)CNC(=O)c1ccc(S(=O)(=O)N2CCCC2)cc1,-13,-1%,-2,1%,-7%,x,0.8
O=C(/C=C/c1ccc(OCCCF)cc1)N1CCOCC1,-5,-1%,-9,6%,9%,0.3%,-1.2
O=C1CCCC2=C1C1(CCCC1)N=C(Nc1nc3ccccc3o1)N2,3,x,x,14%,x,x,2.4
COc1ccc(S(=O)(=O)N2CCC(n3cnc4cc(C(F)(F)F)ccc43)CC2)cc1,-6,2%,33,7%,-4%,-0.8%,-1.3
Cc1cc(-n2c(C)cc(C(=O)CN3C(=O)NC4(CCCCC4C)C3=O)c2C)no1 (configuration not stated),-4,-40%[inhibitor],-13,5%,-1%,2.4%,4.4
COc1ccccc1N1CCN(CCc2n[nH]c(=S)n2-c2ccccc2)CC1,-1,-15%,16,-11%,-8%,0.0%,0.5
CC(C)COC(=O)Nc1ccc(C(=O)O)cc1,0,3%,17,9%,5%,1.7%,0.1
CC(C)Oc1ccc(-c2nc(NCC3CCCO3)c3ccccc3n2)cc1 (configuration not stated),x,-4%,3,-9%,-33%,x,2.7
COc1ccc(C)cc1C(=O)C1CC(C(=O)O)C(C)(C)C1C (configuration not stated),-1,0%,8,17%,-1%,-6.8%,u
CC(C)=CCC/C(C)=C/CNC(=O)C[C@H]1C[C@H](C(=O)N(C(C)C)C(C)C)[C@@]2(C)c3[nH]c4cc(CCC(=O)N(C)C)ccc4c3CCN2C1=O,x,x,-5,x,-18%,-0.1%,x
O=C(CCc1nc2sc3c(c2c(=O)[nH]1)CCCC3)Nc1ccccc1Cl,10,-24%[15.4 µM],-3,x,1%,x,x
O=C(NC1(C(F)(F)F)NC(=O)N(C2CCCCC2)C1=O)c1ccco1 (configuration not stated),-1,-6%[15.4 µM],2,-5%,3%,-4.2%,1.4
CCCS(=O)(=O)N1CCCC(C(=O)NCCc2ccc(OC)c(OC)c2)C1 (configuration not stated),-13,-1%,-19,15%,4%,1.1%,1.6
COc1ccc(CCNC(=O)CN2C(=O)NC(CCSC)C2=O)cc1 (configuration not stated),-2,0%,-11,3%,0%,1.0%,0.7
COc1ccc(OC)c(S(=O)(=O)N2CCN(CC(O)COc3ccccc3)CC2)c1 (configuration not stated),-13,5%[15.4 µM],6,2%,4%,-2.0%,-0.1
Cc1ccccc1C(=O)NC=C1C(=O)OC(C)(C)OC1=O,-3,-25%,37,-5%,12%,x,-0.3
COc1cccc(-c2nc(CS(=O)CC(=O)NCCCOC(C)C)c(C)o2)c1 (configuration not stated),7,2%,-2,11%,6%,-16%,2.3
O=C(c1ccco1)N1CCN(C(=S)Nc2cc(F)cc(F)c2)CC1,12,u,-29,-1%,-7%,-0.4%,5.6
CC(C(=O)N1CCc2ccccc21)N1CCN(S(=O)(=O)c2ccc3c(c2)OCCCO3)CC1 (configuration not stated),x,-13%,-8,x,2%,0.2%,x
CC[C@@H]1C=C(C(=O)O)[C@H](c2ccc(C)cc2)N1S(=O)(=O)c1ccc(C)cc1,x,x,22,x,-1%,-0.3%,x
Cc1cc(C)c(S(C)(=O)=O)c(S(=O)c2ccc(Cl)cc2)n1 (configuration not stated),-9,-27%,15,9%,8%,1.3%,0.0
C[C@H](NC(=O)N1CCn2c1nc1ccccc12)C(=O)NCc1ccccc1,10,1%,-2,6%,9%,-0.5%,x
CSc1nnnn1CCn1nnnc1SC,-1,-8%,89,5%,15%,1.0%,-0.6
C[C@@H]1CN([C@@H](C)CO)C(=O)CCCn2nncc2CO[C@@H]1CN(C)C(=O)Nc1cccc(C(F)(F)F)c1,x,u,-11,x,x,1.4%,x
Cc1sc2ncnc(N/N=C/c3ccccc3O)c2c1C,-8,10%,-6,-4%,-12%,-5.8%,8.0
O=C(c1cccc(S(=O)(=O)N2CCCC2)c1)N1CCCc2ccccc21,-10,-17%,1,-1%,-15%,-0.2%,-0.4
Nc1ccc(S(=O)(=O)NC2(C(F)(F)F)NC(=O)N(c3ccccc3Cl)C2=O)cc1 (configuration not stated),9,-31%[inhibitor],29,14%,-10%,-0.7%,3.2
CCOc1ccc(NCCC(=O)c2ccc3c(c2)OCO3)cc1,-6,-7%,10,-2%,-4%,0.4%,3.9
O=C(COc1ccccc1)Nc1nnc(COc2ccccc2)s1,13,1%,25,11%,-4%,-0.5%,x
O=C(Nc1cccc(Cl)c1)C1CCCN(S(=O)(=O)c2cnc[nH]2)C1 (configuration not stated),-2,-15%,42,4%,0%,1.8%,-0.9
Cc1onc(-c2c(Cl)cccc2Cl)c1C(=O)N(C)Cc1ccccc1,-11,-113%[inhibitor],-1,15%,5%,x,-1.3
FC(F)Oc1ccc(NC(=S)Nc2ccc3cn[nH]c3c2)cc1,x,-7%[15.4 µM],13,-9%,1%,x,1.6
O=C1c2ccccc2C(=O)N1CCCn1ccnc1,0,0%,-8,3%,8%,x,-0.3
COc1ccc(N2C(=O)CC(Cc3ccccc3)C2=O)cc1 (configuration not stated),1,-1%,-5,2%,12%,2.5%,1.0
Cc1ccc(-c2cc(Cc3cccs3)c(=O)[nH]n2)cc1,28,16%[15.4 µM],9,2%,-2%,x,2.3

# Pulled by compound from the list above (4):
SMILES,TRPV1 PAM,gsp ag,TRPML1 blocker,Sfp PPTase inh,gsp antagonist,ClpP mod,Menin-MLL FL inh
C[C@@H]1CN([C@@H](C)CO)C(=O)CCCn2nncc2CO[C@@H]1CN(C)C(=O)Nc1cccc(C(F)(F)F)c1,x,u,-11,x,x,1.4%,x
O=C(COc1ccccc1)Nc1nnc(COc2ccccc2)s1,13,1%,25,11%,-4%,-0.5%,x
Cc1sc2ncnc(N/N=C/c3ccccc3O)c2c1C,-8,10%,-6,-4%,-12%,-5.8%,8.0
O=C1c2ccccc2C(=O)N1CCCn1ccnc1,0,0%,-8,3%,8%,x,-0.3

# Next part.
SMILES,TRPV1 PAM,gsp ag,TRPML1 blocker,Sfp PPTase inh,gsp antagonist,ClpP mod,Menin-MLL FL inh
Cc1cccc(NC(=O)c2ccc(S(=O)(=O)N3CCCCCC3)cc2)n1,9,31%[15.4 µM],69,x,u,x,x
CC(=O)Nc1ccc(S(=O)(=O)Oc2cccc(N3C(=O)C4CCCCC4C3=O)c2)cc1 (configuration not stated),-1,-33%[inhibitor],-2,14%,u,1.7%,-1.1
O=C(O)c1ccccc1C(=O)OCc1ccccc1,12,1%,8,11%,1%,0.7%,2.4
CC(C)COc1cccc(-c2cc(C(=O)N/N=C/c3ccncc3)c3ccccc3n2)c1,11,10%[15.4 µM],-2,7%,-22%,-14%,x
COc1cc(/C=N/NC(=O)c2nonc2C)ccc1O,11,-5%,3,13%,8%,x,0.8
O=S(=O)(c1ccccc1)N(Cc1ccccn1)Cc1ccccn1,29,2%,2,6%,8%,-2.9%,4.5
CC1OC23CCCCC2C(C#N)(C(=N)O3)C1(C#N)C#N (configuration not stated),-22,-11%,13,-7%,17%,51%,-0.7
COc1ccc(N2CCN(C(=O)Cn3cnc4c(cnn4-c4ccccc4)c3=O)CC2)cc1,15,28%,28,19%,3%,1.0%,1.8
COc1cccc(NC(=O)COC(=O)/C=C/c2ccc(Cl)cc2Cl)c1,2,-2%,-6,12%,3%,3.1%,7.8
O=C(/C=C/c1ccccc1)Nc1cccc(C(=O)NCCc2ccccc2)c1,x,x,-3,x,-18%,117%,x
CCCCOc1ccc(NC(=O)CN2CCN(C(=O)OCC)CC2)cc1,-20,-12%,4,-27%,4%,0.2%,-1.2
CCn1nc(C)cc1C(=O)Sc1ccc(C)cc1,16,12%,-21,-3%,10%,x,-1.6
CCCCCCCNC1=CC(=O)CC(c2ccccc2)C1 (configuration not stated),-9,7%,5,-8%,7%,-0.2%,1.7
Cc1cc(C)cc(-c2nnc(SCC(=O)NCc3cccs3)o2)c1,-18,19%,-17,5%,-2%,-0.7%,2.4
Cn1c(CCNC(=O)c2cc(COc3ccc(F)c(F)c3)on2)nc2ccccc21,-6,-14%[15.4 µM],-11,2%,-14%,x,x
CN(C)S(=O)(=O)c1cc(NC(=O)CN2CCc3ccccc32)ccc1Cl,-3,-1%,33,-27%,-10%,x,u
Cc1cccc(C)c1NC(=O)C(=O)NCCCN1CCOCC1,-1,-68%[inhibitor],19,29%,14%,3.5%,1.3
O=C(NCc1ccccn1)c1ccc(Cl)cc1Cl,-1,28%,7,21%,-2%,-1.2%,2.1
Cc1cc(NC(=O)c2cnn3cccnc23)n(-c2ccccc2)n1,-20,19%,-18,23%,10%,-6.0%,5.0
CSc1ccc(C2N=C(c3ccccc3)NO2)cc1 (configuration not stated),-20,-22%,58,-19%,-5%,x,u
CN1C(=O)c2c(sc3c2CCCC3)NC1c1ccccc1O (configuration not stated),-6,x,x,40µM*,x,x,8.8
Cc1cc(Br)ccc1NC(=S)N1CCOCC1,-13,15%[15.4 µM],16,13%,5%,x,-2.0
COC(=O)[C@@]1(Cc2ccccc2)[C@H]2C(=O)N(C)C(=O)[C@H]2[C@H]2CN=C(SCc3ccc(Cl)cc3)N21,x,x,39,x,-16%,-1.3%,x
COc1ccc(/C=N/n2c(-c3n[nH]c4c3CCC4)n[nH]c2=S)c(OC)c1OC,-2,-2%,-3,-20%,-16%,3.2%,1.6
CCN1/C(=C/C(=S)Nc2ccccc2)Sc2ccccc21,8,-15%[15.4 µM],25,14µM*,-12%,-10%,6.1
NC(N)=Nc1nc2cc([N+](=O)[O-])ccc2o1,5,-4%,33,4%,9%,1.8%,-1.5
